Screens: PubChem BioAssay, National Center for Advancing Translational Sciences (NCATS)
ClpP mod = qHTS Assay for Activators of ClpP | Potency, µM (series often up to 57.5 µM), inactives show at the highest dose activity change, negative = active | 340,000 compounds, 1.9% hits | ATP-dependent Clp protease proteolytic subunit (Bacillus subtilis (strain 168)), P80244 | purified B. subtilis ClpP, FRET peptide cleavage, 20 min; active = well fitted falling curve with a large enough effect; inconclusive = small, poorly fitted or top-dose-only effect; inactive = no such curve, though single readings can be large or run the other way; further: potency means the concentration at half of the fitted maximal effect; the source files actives as falling curves though it sought activators and does not explain the sign; nearly all actives have a fitted effect of over 65% in size; many hits overshoot -100%
Target sequence (P80244 whole entry, looked up): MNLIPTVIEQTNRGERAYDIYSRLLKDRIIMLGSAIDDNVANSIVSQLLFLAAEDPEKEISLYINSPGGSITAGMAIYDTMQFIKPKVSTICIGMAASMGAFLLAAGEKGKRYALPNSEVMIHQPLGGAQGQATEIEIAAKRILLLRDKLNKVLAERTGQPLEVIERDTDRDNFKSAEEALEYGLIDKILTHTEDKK
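Buffer: 100 mM Tris/HCl pH8, 100 mM KCl, 0.05% low protease BSA, 2.5% glycerol, 0.01% Tween-20. ClpP 10 microg/mL final; 20 min RT; delta FRET normalized to ADEP and DMSO controls.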
TRPML1 inh = inhibitors of human TRPML1 channel; Q9GZU1; TRPML1-inducible cells, Ca2+ dye fluorescence, FDSS; stronger effect = lower value; inhibition of EC80 agonist-evoked calcium signal; activity change, negative = inhibition, % (test concentration not listed); 390,000 compounds, 0.02% hits; in the data active means activity change below about -50%; inconclusive means about -30% to -50%; inactive means above about -30%;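 further: stimulus is agonist 54-4 at its EC80 concentration; on the % scale 0 is the no-effect control and ±100 the full control effect; compound concentration not given in the record; the text of the record puts the active cut at -80%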
Target sequence (Q9GZU1 whole entry, looked up): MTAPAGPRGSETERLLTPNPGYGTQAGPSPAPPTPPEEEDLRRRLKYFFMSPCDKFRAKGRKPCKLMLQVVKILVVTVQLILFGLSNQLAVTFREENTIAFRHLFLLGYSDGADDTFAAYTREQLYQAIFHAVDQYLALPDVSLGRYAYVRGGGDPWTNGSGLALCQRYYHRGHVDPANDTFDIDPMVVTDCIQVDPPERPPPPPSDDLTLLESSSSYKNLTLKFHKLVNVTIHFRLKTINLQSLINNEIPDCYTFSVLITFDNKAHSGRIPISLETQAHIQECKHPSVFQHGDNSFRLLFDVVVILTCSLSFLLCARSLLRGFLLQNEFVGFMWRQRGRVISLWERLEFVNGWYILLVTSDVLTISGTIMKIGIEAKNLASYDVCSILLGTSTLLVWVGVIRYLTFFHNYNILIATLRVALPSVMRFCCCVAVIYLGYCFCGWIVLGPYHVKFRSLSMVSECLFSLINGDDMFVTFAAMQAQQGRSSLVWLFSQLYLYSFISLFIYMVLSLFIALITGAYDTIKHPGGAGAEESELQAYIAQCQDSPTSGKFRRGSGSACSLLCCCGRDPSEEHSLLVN
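Tet-induced TRPML1-DL cells loaded with Ca8 no-wash calcium dye were read kinetically on FDSS. Compound addition was followed by EC80 agonist 54-4 (4 uM final); inhibition was read over 110 s.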
gsp antag = gsp mutant antagonism | gsp-mutant cells, cAMP HTRF, 30 min; control for the full effect not named in the record | Potency, µM (top dose mostly 76.9 µM), for the others: at the highest dose activity change, negative = inhibition, hits mostly inhibitors | 340,000 compounds, 0.4% hits | AID 624288; active = falling curve of any shape with a large fitted effect; inconclusive = falling curve, mostly with a smaller effect; inactive = flat or rising curve; cell line not stated here;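 further: intracellular cAMP measured with PDE inhibitor Ro 20-1724 present during compound exposure; potency means the concentration at half of the fitted maximal effect; on the % scale 0 is the no-effect control and ±100 the full control effect; nearly all actives have a fitted effect of over 65% in size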
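HTRF cAMP read-out (cAMP-d2 plus anti-cAMP antibody-K in lysis buffer, 30 min RT). Before lysis, cells are exposed to compounds with […] for 30 min at 37C in DPBS containing Ca/Mg, BSA and Tween 20.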
Sfp PPTase inh = blocks B. subtilis Sfp PPTase activity. Potency, µM, inactives show max response, negative = inhibition, hits mostly inhibitors. 310,000 compounds, 3.5% hits. Biochemical Sfp PPTase activity, qHTS; active means well fitted inhibition curve with a large enough effect; inconclusive means small, poorly fitted or top-dose-only effect, or another doubt; inactive means no such curve, though single readings can be large or run the other way;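 further: the enzyme is Sfp with the accession as filed and its product quenches rhodamine fluorescence; potency means the concentration at half of the fitted maximal effect; 0% = enzyme reaction without inhibitor and -100% = no enzyme wells; top concentration of the series not given in the record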
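Compounds were incubated with enzyme (final 15 nM) for 15 min at room temperature before substrate addition started the reaction. Fluorescence at 525 nm excitation, 598 nm emission was recorded immediately and after 30 minutes.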
TRPV1 PAM = human TRPV1 potentiation | TRPV1-expressing cells, Fluo-8 calcium influx, capsaicin EC20 potentiation; host cell line not named in the record; control for the full effect not named in the record | potentiation, % at 8.33 µM | 320,000 compounds, 0.02% hits | AID 540277; active means potentiation above 80%; inconclusive means 30% to 80%; inactive means below 30%; further: 0% is about no effect
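TRPV1-expressing cells were cultured overnight at 35.5C and loaded with Fluo-8 calcium dye for 40 to 90 min at room temperature. After a 10 s baseline, compound was added and calcium influx was read kinetically for 3 min (ex 480/em 520 nm).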
gsp agonist = activates gsp, the McCune-Albright syndrome mutation; gsp mutant cells, cAMP HTRF, 30 min; control for the full effect not named in the record; Potency, µM (highest dose often 76.9 µM), for the others: at the highest dose activation (cAMP increase), most hits filed as activators; 340,000 compounds, 0.13% hits; active = well fitted activation curve with a large enough effect; inconclusive = small, poorly fitted or top-dose-only effect, or another doubt; inactive = no such curve, though single readings can be large or run the other way; cell line not stated here;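 further: phosphodiesterase inhibitor Ro 20-1724 added with compounds to block cAMP breakdown; potency means the concentration at half of the fitted maximal effect; nearly all actives have a fitted effect of over 60% in size; about a fifth of the inactives were tested at one dose only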
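Cells in DMEM/10% FBS with G418 were pretreated with compounds in DMSO plus […] (300 uM stock) for 30 min at 37C. cAMP was measured by HTRF (cAMP-d2 plus anti-cAMP antibody-K) after 30 min at room temperature.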
Menin MLL FP FL = displaces fluorescein MLL peptide from human menin | Fluorescence polarization, fluorescein-MLL peptide displacement from menin | FP activity change, % at 61.4 µM | AID 1766 | 290,000 tested, under 10 active; inconclusive = falling polarisation curve, or a change in total fluorescence; inactive = total fluorescence flat and polarisation flat or rising; no compound was filed as active; the % refers to the polarisation; negative = inhibition;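 further: % of control where 0% means no effect; inhibitors lower the polarisation; unlabelled MLL peptide was the positive control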
The depositor's hits bear a star; ? = inconclusive; . = not tested or not shown; & = joins results of further samples; [ ] = another dose, or the depositor's remark. An unsorted share of the library; overall some 4.9% were active at least once.

smiles | ClpP mod | TRPML1 inh | gsp antag | Sfp PPTase inh | TRPV1 PAM | gsp agonist | Menin MLL FP FL
Cn1c(CSc2ncccn2)nnc1SCC(=O)N1CCCCCC1 | 1.1% | -15 | -13% | 16% | 11 | ? | -1.3
O=C(COC(=O)c1ccc(Cl)nc1)c1ccc2c(c1)OCCO2 | 0.4% | 0 | -4% | 6% | 4 | -97%[inhibitor] | -1.0
COc1ccc(C(=O)COC(=O)C(O)c2ccccc2)c(OC)c1 (stereo not drawn) | -2.2% | 8 | 2% | . | . | -6% | .
Cc1cc(=O)n(CC(C)O)c(O)c1C#N (stereo not drawn) | ? | 8 | -6% | -3% | -31 | 0% | 4.1
COc1cc(C2CC(=O)Oc3c(C(CCN4CCN(c5ccccc5)CC4)c4ccc(N(C)C)cc4)c(OC)cc(OC)c32)cc(OC)c1OC (stereo not drawn) | -3.0% | -4&-5 | 2% | 19%&4% | 3 | -37% | -1.2&4.0
CCOC(=O)/C(C#N)=C/c1c(Oc2cccc(C)c2)nc2c(C)cccn2c1=O | 0.1% | ? | 12% | 89µM* | -16 | 9% | 12
COc1ccc(CN(C)S(=O)(=O)c2nnc(NC(=O)c3cccc(F)c3)s2)cc1 | . | 21 | -20% | 12% | ? | ? | -5.7
CC(=O)Nc1ccc(NC(=O)CSc2nccn2Cc2ccco2)cc1 | -2.9% | -5 | -9% | 11% | -4 | -42%[inhibitor] | .
CCCOc1ccc(C(=O)NCCC(=O)NCCCC(=O)O)cc1 | . | -20 | -9% | 13% | 0 | -22%[15.4 µM] | 1.8
COc1ccc(C(=O)c2coc3c2C(=O)C(=O)c2ccccc2-3)cc1 | 0.0% | 23 | 0% | 32µM* | 2 | -4%[15.4 µM] | 3.0
COCc1nc(-c2ccc(-c3ccccc3)nc2OC)no1 | ? | 40 | -2% | ? | 2 | 3% | 3.4
COc1ccc(/C=C/C(=O)c2ccc[nH]2)c(OC)c1OC | -3.0% | 15 | 16% | 7% | -3 | 0% | 1.6
Cc1ccc2c(c1)NC(=O)C(CC(=O)NCCCN1CCCC1=O)O2 (stereo not drawn) | -2.0% | -2 | 2% | 2% | 1 | -19% | 1.1
COc1ccc(C2/C(=C(/O)c3ccc(C)cc3)C(=O)C(=O)N2CC2CCCO2)cc1OC (stereo not drawn) | . | -5 | 7% | 17% | 5 | 1% | -0.5
CCCCn1c(N)c(N(Cc2ccccc2OC)C(=O)C(C)Oc2ccc(F)cc2)c(=O)[nH]c1=O (stereo not drawn) | -13% | 29 | 5% | . | -4 | 6%[15.4 µM] | .
C=CCn1c(C)cc(C(=O)COC(=O)C2CC(=O)N(Cc3ccccc3)C2)c1C (stereo not drawn) | -1.2% | 15 | 5% | 4% | -1 | 1% | 3.0
Cc1cc(C)cc(C(=O)NC(CC(N)=O)c2ccc(NC3CCCCC3)c([N+](=O)[O-])c2)c1 (stereo not drawn) | -4.4% | -5 | 1% | -7% | 10 | . | 0.6
O=C(CCn1nnc2ccccc2c1=O)N[C@@H](Cc1ccccc1)C(=O)O | -0.6% | 11 | 14% | 13% | . | 26% | 2.1
COc1ccccc1/C=N/NC(=O)c1csc(C)c1C | -1.0% | 41 | -10% | 9% | 10 | -1% | 0.2
COC(=O)[C@H]1C[C@H](OC(=O)NCc2ccc(OC)c(OC)c2)[C@@]2(O)CN(S(=O)(=O)c3ccc(C)cc3)CC2[C@H]1C(=O)OC (stereo partly drawn) | 0.2% | -3 | . | . | . | -11% | .
c1ccc(C2=Nn3c(nnc3-c3ccncc3)SC2)cc1 | -0.4% | 12 | -11% | 9% | -2 | 2%[15.4 µM] | -1.5
O=C(Nc1ncccc1Cl)c1ccc2c(c1)OCCO2 | -24% | -6 | 9% | 12% | -4 | -5%[15.4 µM] | -3.1
COc1ccc(N2C(=O)CC(N3CCCC4CCCCC43)C2=O)cc1 (stereo not drawn) | -2.5% | 17 | 0% | -4% | 11 | 0% | 1.7
Cc1cc(C)c2c(NC(=S)NC(=O)c3ccccc3)nn(C)c2n1 | . | -5 | 9% | ? | 16 | -22%[15.4 µM] | -5.5
COc1cccc(-c2nc(CS(=O)(=O)CC(=O)NCCCN3CCc4ccccc4C3)c(C)o2)c1 | 2.7% | 21 | -1% | ? | -17 | 27% | -2.5
CC1CN(C(=O)Nc2ccccc2)c2ccccc2-[n+]2ccsc21 (stereo not drawn) | 0.2% | -18 | 9% | -11% | -2 | 16%[15.4 µM] | 0.7
CCN(C(=O)CSc1nnc(-c2ccccc2Cl)n1N)c1c(N)n(Cc2ccccc2)c(=O)[nH]c1=O | -0.8% | 52 | 6% | . | . | -25% | .
Cc1ccc(N(CC(=O)NCc2ccco2)C(=O)CNS(=O)(=O)c2ccccc2)c(C)c1 | . | -7 | -5% | -5% | 4 | 24%[15.4 µM] | 1.3
Cc1ccnc(SCCn2c(N3CCN(Cc4ccccc4)CC3)nc3c2c(=O)[nH]c(=O)n3C)n1 | 0.7% | -4 | -1% | -1% | . | -13% | -1.7
CCOc1ccc(C(=O)NCc2ccco2)cc1Cl | . | 7 | -4% | 15% | -39 | 2% | 0.7
COc1cccc(SCc2noc(C(=O)NCC3CC3)c2C(=O)NCC2CC2)c1 | 1.4% | 2 | -28% | . | . | -32%[inhibitor] | .
CCCc1nc2c(s1)CCc1onc(-c3cccc([N+](=O)[O-])c3)c1-2 | 0.7% | 15 | ? | . | 17 | 8% | .
CCN(CC)c1ccc(C(=O)OCC(=O)NCC2CCCO2)cc1 (stereo not drawn) | -0.9% | -8 | 7% | 21% | 7 | -9% | 2.1
COc1ccccc1CNC(=O)CCNC(=O)C1CCN(S(=O)(=O)c2ccccc2)CC1 | 1.2% | 6 | 9% | 22% | 8 | ? | 1.7
CC1(C)Cc2[nH]c3ccccc3c2C(C)(C)N1 | -0.3% | 2 | 12% | 5% | -17 | ? | -6.2
COC(=O)/C=C1\N/C(=N\c2nc(C)cc(C)n2)N(c2ccc(C)cc2)C1=O | -0.7% | -16 | 56%[activator] | 10% | -1 | 2% | 0.1
CCC(=O)C(C#N)(c1ccc(OC)c(OC)c1)C(C)C (stereo not drawn) | 0.2% | 2 | 7% | . | -5 | 25% | .
O=C(O)C(O)Cc1c[nH]c2ccccc12 (stereo not drawn) | -11% | . | 2% | -3% | 1 | . | 3.0
CCCc1nnc(NC(=O)CCCC(=O)O)s1 | -1.3% | 19 | 4% | 21% | -2 | 3% | 3.8
O=C(c1ccco1)N1CCN(c2cc(C(F)(F)F)nc3ncnn23)CC1 | 0.9% | 13 | 5% | 10% | 2 | ? | 2.2
COc1ccc(-c2cc(=O)oc3cc(OC(C)C(=O)O)ccc23)cc1 (stereo not drawn) | ? | -8 | -5% | 19% | 6 | 18% | 1.7
Cc1ccc(C)c(S(=O)(=O)NC(C)C(=O)Nc2ccc(-c3nc4ccccc4s3)cc2)c1 (stereo not drawn) | 32µM* | -15 | -33% | 6% | 1 | -4% | 6.1
CC1CCc2c(sc(NC(=O)CN3CCN(C(=O)c4ccco4)CC3)c2C#N)C1 (stereo not drawn) | 1.4% | -2 | -18% | 9% | -26 | -3%[15.4 µM] | 3.0
COc1cccc(NC(=O)CN(C)C(=O)c2ccc(-n3cncn3)c([N+](=O)[O-])c2)c1 | -0.2% | 3 | 10% | . | -2 | -20% | .
CC1C[N+](=C2C=C(N3CCOCC3)CC(C)(C)C2)CC(C)O1 (stereo not drawn) | . | 0 | 2% | ? | -22 | 16% | 5.7
O=C(NCc1ccccn1)C1CCN(Cc2cnn(-c3ccccc3)c2-n2cccc2)CC1 | 1.7% | 37 | 9% | 6% | -15 | -9% | 3.8
CS(=O)(=O)N1CCN(c2ccccc2NC(=O)c2ccc3ccccc3c2)CC1 | -6.5% | 45 | -31% | 6% | -1 | -18% | 2.9
Cc1nc(NC(=O)c2ccncc2)sc1C(=O)N(C)C | -2.1% | -14 | 6% | -6% | 3 | -1% | 3.2
Cc1onc(-c2ccccc2)c1C(=O)N[C@@H]1C(=O)N2C1SC(C)(C)[C@@H]2C(=O)O (stereo partly drawn) | -1.0% | 2 | -3% | . | . | . | .
CN(C)/C=N/NC(=O)c1ccccc1Cl | 0.5% | -1 | -4% | 0% | -9 | 1% | 3.4
CC(=O)C(Cc1ccccc1)(Cc1ccccc1)C(C)=O | -2.9% | -4 | -1% | -4% | -11 | -13%[15.4 µM] | -0.3
c1cc(CNc2ccc3c(c2)OCCO3)ccn1 | 3.8% | -1 | -14% | 13% | 3 | 22% | 2.0

A second format for part of the listing above:
The line under a structure holds: ClpP mod | TRPML1 inh | gsp antag | Sfp PPTase inh | TRPV1 PAM | gsp agonist | Menin MLL FP FL
COc1ccccc1CNC(=O)CCNC(=O)C1CCN(S(=O)(=O)c2ccccc2)CC1
    1.2% | 6 | 9% | 22% | 8 | ? | 1.7
CC1(C)Cc2[nH]c3ccccc3c2C(C)(C)N1
    -0.3% | 2 | 12% | 5% | -17 | ? | -6.2
COC(=O)/C=C1\N/C(=N\c2nc(C)cc(C)n2)N(c2ccc(C)cc2)C1=O
    -0.7% | -16 | 56%[activator] | 10% | -1 | 2% | 0.1
CCC(=O)C(C#N)(c1ccc(OC)c(OC)c1)C(C)C (stereo not drawn)
    0.2% | 2 | 7% | . | -5 | 25% | .
O=C(O)C(O)Cc1c[nH]c2ccccc12 (stereo not drawn)
    -11% | . | 2% | -3% | 1 | . | 3.0
CCCc1nnc(NC(=O)CCCC(=O)O)s1
    -1.3% | 19 | 4% | 21% | -2 | 3% | 3.8
O=C(c1ccco1)N1CCN(c2cc(C(F)(F)F)nc3ncnn23)CC1
    0.9% | 13 | 5% | 10% | 2 | ? | 2.2
COc1ccc(-c2cc(=O)oc3cc(OC(C)C(=O)O)ccc23)cc1 (stereo not drawn)
    ? | -8 | -5% | 19% | 6 | 18% | 1.7
Cc1ccc(C)c(S(=O)(=O)NC(C)C(=O)Nc2ccc(-c3nc4ccccc4s3)cc2)c1 (stereo not drawn)
    32µM* | -15 | -33% | 6% | 1 | -4% | 6.1
